# Assay outcomes deposited in PubChem BioAssay by National Center for Advancing Translational Sciences (NCATS).
# TRPV1 potentiator: enhances activation of the human vanilloid receptor TRPV1; potentiation, % at 8.33 µM; Q8NER1; TRPV1-expressing cells, Fluo-8 calcium influx, capsaicin EC20 potentiation; host cell line not named in the record; control for the full effect not named in the record; actives 0.02% (n = 320,000); active means potentiation above 80%; inconclusive means 30% to 80%; inactive means below 30%; further: 0% is about no effect
# Target sequence (Q8NER1 whole entry, looked up): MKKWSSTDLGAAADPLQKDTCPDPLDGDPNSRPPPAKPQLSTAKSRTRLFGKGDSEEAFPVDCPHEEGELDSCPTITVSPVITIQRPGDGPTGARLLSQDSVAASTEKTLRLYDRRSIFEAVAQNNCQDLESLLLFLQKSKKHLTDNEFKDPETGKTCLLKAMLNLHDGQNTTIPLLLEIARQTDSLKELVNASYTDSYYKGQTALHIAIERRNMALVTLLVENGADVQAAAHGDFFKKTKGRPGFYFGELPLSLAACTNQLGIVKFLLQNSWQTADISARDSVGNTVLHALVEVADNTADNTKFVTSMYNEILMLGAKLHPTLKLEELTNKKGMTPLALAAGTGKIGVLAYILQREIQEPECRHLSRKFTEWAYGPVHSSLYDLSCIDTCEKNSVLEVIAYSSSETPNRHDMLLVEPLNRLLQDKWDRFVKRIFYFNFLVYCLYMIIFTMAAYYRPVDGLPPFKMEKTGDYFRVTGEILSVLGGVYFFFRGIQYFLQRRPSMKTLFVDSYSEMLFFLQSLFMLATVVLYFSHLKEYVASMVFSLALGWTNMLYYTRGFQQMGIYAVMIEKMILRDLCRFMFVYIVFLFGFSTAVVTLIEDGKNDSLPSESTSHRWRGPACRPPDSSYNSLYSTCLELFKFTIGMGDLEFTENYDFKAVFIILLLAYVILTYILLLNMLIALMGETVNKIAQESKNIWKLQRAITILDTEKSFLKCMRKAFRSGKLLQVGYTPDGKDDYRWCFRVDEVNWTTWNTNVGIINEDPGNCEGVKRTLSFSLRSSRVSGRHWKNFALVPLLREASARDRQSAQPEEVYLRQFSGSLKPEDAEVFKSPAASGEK
#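 TRPV1-expressing cells were cultured overnight at 35.5C and loaded with Fluo-8 calcium dye for 40 to 90 min at room temperature. After a 10 s baseline, compound was added and calcium influx was read kinetically for 3 min (ex 480/em 520 nm).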
# gsp ag: activates gsp, the McCune-Albright syndrome mutation | AID 624287 | gsp mutant cells, cAMP HTRF, 30 min; control for the full effect not named in the record | Potency, µM (top dose mostly 76.9 µM), inactives show at the top dose activation (cAMP increase), usual class: activators | actives 0.13% (n = 340,000); active = well fitted activation curve with a large enough effect; inconclusive = small, poorly fitted or top-dose-only effect, or another doubt; inactive = no such curve, though single readings can be large or run the other way; cell line not stated here;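 further: phosphodiesterase inhibitor Ro 20-1724 added with compounds to block cAMP breakdown; potency means the concentration at half of the fitted maximal effect; nearly all actives have a fitted effect of over 60% in size; about a fifth of the inactives were tested at one dose only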
#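 Cells stably selected in G418 were plated at 2000/well, grown 16-24 hr, then given compounds in DMSO with the PDE inhibitor […] (300 uM solution added) for 30 min at 37C; cAMP was read by HTRF.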
# CtBP-E1A blk: blocks the CtBP interaction with E1A | AlphaScreen GST-E1A/His-CtBP binding, 1536-well; active compounds read low; control for the full effect not named in the record | activity change, % (no concentration beside the values) | actives 0.49% (n = 340,000) | AID 651724; in the data active means activity change below about -65%; inconclusive means about -30% to -65%; inactive means above about -30%; further: on the % scale 0 is the no-effect control and ±100 the full control effect
#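 AlphaScreen with 125 nM GST-E1A and 125 nM His-CtBP (5X stocks) in Tris pH 8.0, 300 mM NaCl, BSA, Tween 20, TCEP. Compounds preincubated 2 h at 37 deg C, then glutathione donor/nickel acceptor beads added for 1 h at 37 deg C in dark.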
# ClpP mod: qHTS Assay for Activators of ClpP. Potency, µM (highest dose often 57.5 µM), inactives show at the top dose activity change, negative = active. actives 1.9% (n = 340,000). purified B. subtilis ClpP, FRET peptide cleavage, 20 min. AID 651965, 2013; active = well fitted falling curve with a large enough effect; inconclusive = small, poorly fitted or top-dose-only effect; inactive = no such curve, though single readings can be large or run the other way; further: potency means the concentration at half of the fitted maximal effect; the source files actives as falling curves though it sought activators and does not explain the sign; nearly all actives have a fitted effect of over 65% in size; many hits overshoot -100%
# Target sequence (P80244 whole entry, looked up): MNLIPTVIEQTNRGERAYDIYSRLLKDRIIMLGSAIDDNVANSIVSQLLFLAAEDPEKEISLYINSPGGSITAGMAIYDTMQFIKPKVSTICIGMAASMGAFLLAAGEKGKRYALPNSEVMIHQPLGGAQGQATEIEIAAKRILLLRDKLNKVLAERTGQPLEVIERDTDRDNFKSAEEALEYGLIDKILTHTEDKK
#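 Buffer: 100 mM Tris/HCl pH8, 100 mM KCl, 0.05% low protease BSA, 2.5% glycerol, 0.01% Tween-20. ClpP 10 microg/mL final; 20 min RT; delta FRET normalized to ADEP and DMSO controls.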
# Menin MLL FP FL: menin-MLL binding inhibition, fluorescein peptide. 290,000 tested, under 10 active. FP activity change, % at 61.4 µM. Fluorescence polarization, fluorescein-MLL peptide displacement from menin; inconclusive = falling polarisation curve, or a change in total fluorescence; inactive = total fluorescence flat and polarisation flat or rising; no compound was filed as active; the % refers to the polarisation; negative = inhibition;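 further: % of control where 0% means no effect; inhibitors lower the polarisation; unlabelled MLL peptide was the positive control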
# gsp antag: gsp mutant antagonism; Potency, µM (series often up to 76.9 µM), for the others: at the top dose activity change, negative = inhibition, hits mostly inhibitors; AID 624288; gsp-mutant cells, cAMP HTRF, 30 min; control for the full effect not named in the record; actives 0.4% (n = 340,000); active = falling curve of any shape with a large fitted effect; inconclusive = falling curve, mostly with a smaller effect; inactive = flat or rising curve; cell line not stated here;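 further: intracellular cAMP measured with PDE inhibitor Ro 20-1724 present during compound exposure; potency means the concentration at half of the fitted maximal effect; on the % scale 0 is the no-effect control and ±100 the full control effect; nearly all actives have a fitted effect of over 65% in size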
#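 Cells in G418 medium, seeded 16-24 h, 37C; buffer exchange to DPBS + 1 mM CaCl2, 0.5 mM MgCl2, 0.05% BSA; cpds in DMSO + […] (300 uM stock), 30 min 37C; HTRF cAMP detection.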
# Sfp PPTase inh: Sfp phosphopantetheinyl transferase inhibition; Q9F4F7; Biochemical Sfp PPTase activity, qHTS; actives 3.5% (n = 310,000); Potency, µM, inactives show max response, negative = inhibition, most hits filed as inhibitors; AID 1490; active means well fitted inhibition curve with a large enough effect; inconclusive means small, poorly fitted or top-dose-only effect, or another doubt; inactive means no such curve, though single readings can be large or run the other way;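 further: the enzyme is Sfp with the accession as filed and its product quenches rhodamine fluorescence; potency means the concentration at half of the fitted maximal effect; 0% = enzyme reaction without inhibitor and -100% = no enzyme wells; top concentration of the series not given in the record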
#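 Step 1, compound plus 15 nM Sfp-PPTase, 15 min, room temperature. Step 2, add rhodamine-CoA (5 uM) and BHQ-2-YbbR (12.5 uM). Step 3, read 525/598 nm fluorescence at 0 and 30 min.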
# An asterisk follows results filed as active; ? = inconclusive; . = not tested or not shown; & = joins results of further samples; [ ] = remark or other dose. Hits appear at their usual frequency; 5.3% or so of the library scored in one or more.
SMILES,TRPV1 potentiator,gsp ag,CtBP-E1A blk,ClpP mod,Menin MLL FP FL,gsp antag,Sfp PPTase inh
CC(C)CC(=O)c1c[nH]c(C(=O)N2CCN(Cc3ccccc3)CC2)c1,-14.7,4.4%[15.4 µM],-2.5,.,-2.9,21.9%,-1.6%
Cc1ccc(C2(c3ccccc3)NC(=O)N(CC(=O)N(C)C3CCS(=O)(=O)C3)C2=O)cc1C (stereo not drawn),-20.6,3.1%,.,0.6%,.,7.6%,.
CCOc1ccc(-n2c(CCc3ccccc3)n[nH]c2=S)cc1,8.3,10.4%[15.4 µM],-12.3,-8.4%,3.6,-6.1%,-14.2%
NC(=O)c1ccccc1NS(=O)(=O)c1ccc2c(c1)OCCO2,-4.6,3.6%,5.4,25.1µM*,-4.1,0.4%,4.2%
CCOc1cc(C(=O)N/N=C/c2ccoc2)cc(OCC)c1OCC,-8.4,14.5%,0.0,-0.8%,.,3.3%,11.6%
Cc1ccccc1SCC(=O)NCC1(N2CCCCC2)CCCCC1,.,-47.2%[inhibitor],5.0,-12.7%,.,.,.
O=C(Nc1cccc(Cl)c1)OC1CCCCc2cccnc21 (stereo not drawn),15.1,-46.5%[inhibitor][15.4 µM],4.3,.,2.6,-16.5%,7.7%
COc1ccc(CC(NC(C)=O)C(=O)NC2CCN(C(=O)Nc3ccccc3Cl)CC2)cc1OC (stereo not drawn),?,23.2%,1.8,0.2%,1.2,3.7%,9.5%
CN(CC(=O)Nc1ccc(F)cc1)C(=O)COC(=O)C1=COCCO1,-1.0,22.0%,6.0,-1.5%,.,12.2%,.
N#Cc1ccc(NC(=O)CSc2nc3[nH]c(=O)cc(O)c3s2)cc1,-0.9,11.4%,.,-1.0%,.,1.0%,.
Cc1cn(CC(=O)NCCc2ccccn2)c(=O)[nH]c1=O,.,.,3.4,1.5%,.,9.2%,.
CC(NS(=O)(=O)c1ccccc1)C(N)=O (stereo not drawn),0.7,0.0%,-1.3,-1.9%,0.4,9.4%,6.7%
O=C(NC(=S)N1CCN(c2nc(-c3ccccc3)cs2)CC1)c1cccnc1,-25.0,11.1%,-11.4,-3.4%,.,-10.5%,9.9%
CC(=O)N1CCc2cc(S(=O)(=O)NC(Cc3ccccc3)C(=O)O)ccc21 (stereo not drawn),5.0,18.4%,4.6,-0.2%,.,9.9%,5.8%
O=C1CCN(Cc2ccc(Br)cc2)CCN1CCO,-2.0,.,2.4,0.4%,0.0,12.1%,1.9%
CC(C)(C)OC(=O)NCc1ccc(CNC(=O)c2ncn(Cc3ccccc3)c2C(=O)NCc2ccc(CNC(=O)OC(C)(C)C)cc2)cc1,.,.,3.4,1.6%,.,6.8%,.
Cc1cccc(NC(=S)NNC(=O)c2ccc3c(c2)OCO3)c1,3.9,-18.4%,1.1,13.1%,-1.2,-5.1%,3.1%
Cn1cc(S(=O)(=O)N2CCOCC2)cc1C(=O)Nc1ccc(Cl)cc1,2.8,-66.7%[inhibitor],-19.6,50.7%,0.1,-1.3%,-1.4%
COc1ccc(N=c2scc(C)n2CCCN2CCCC2=O)cc1,6.4,1.3%[15.4 µM],1.9,-2.5%,0.4,-2.0%,2.6%
COc1cc(C(=O)NCCN=C2NS(=O)(=O)c3ccccc32)cc(OC)c1OC,1.2,-4.2%[15.4 µM],-2.8,.,.,7.0%,5.9%
CCC(CC)NC(=O)Cc1ccc(S(=O)(=O)N2CCOCC2)s1,-1.4,6.7%,-0.1,-15.3%,2.1,1.7%,6.1%
Cc1cc(C)nc(OC(C(=O)O)C(OCc2ccccc2)(c2ccccc2)c2ccccc2)n1 (stereo not drawn),2.1,-0.1%,.,1.2%,-2.9,-12.8%,13.5%
Cc1ccc(CN2CCC(c3cc(-c4ccc(Cl)cc4)n[nH]3)CC2)cc1,-12.7,11.7%[15.4 µM],2.8,.,5.1,4.8%,-10.5%
O=C(c1cc2cc(Br)ccc2o1)N1CCCCC1,-14.5,0.9%,2.7,.,-1.5,-9.5%,?
Cc1ccc(OC/C(=N\O)C(C)(C)C)c([N+](=O)[O-])c1,-2.8,-5.9%[15.4 µM],0.7,.,0.7,5.9%,7.0%
O=C(CSc1cnc2ccccc2n1)NC1CCCC1,4.0,?,2.6,3.9%,0.5,20.4%,6.7%
COc1cccc(S(=O)(=O)Nc2ccc3c(c2)[C@@H]2C[C@H](CC(=O)NCCc4ccccc4)O[C@H](CO)[C@@H]2O3)c1,.,-2.6%,-11.8,-0.8%,.,.,.
C[N+]1(CCCCSc2ccc(O)cc2)CCCCC1,-13.7,12.1%[15.4 µM],-1.6,-10.3%,8.5,5.9%,1.8%
O=[N+]([O-])c1ccc(N2CCN(C(=S)NCc3ccc(Cl)cc3)CC2)cc1,-5.1,?,.,3.0%,0.6,-6.5%,13.7%
O=S(=O)(N(Cc1ccccc1)[C@@H](CO)Cc1ccccc1)N(Cc1ccccc1)[C@@H](CO)Cc1ccccc1,.,-4.1%,2.1,-1.3%&1.6%,.,1.9%,.
CCCC1OC2CC3C4CCC5=CC(=O)C=CC5(C)C4C(O)CC3(C)C2(C(=O)O)O1 (stereo not drawn),-11.6,-11.3%,4.9,0.3%,-11.3,3.0%,12.6%
Cc1oc2cc(O)ccc2c(=O)c1-c1ccccc1,-5.2,13.1%[15.4 µM],0.5,.,-1.3,-4.5%,16.2%
O=C(Nc1cc(C(F)(F)F)ccc1N1CCCC1)C1CCCO1 (stereo not drawn),-16.8,7.9%,.,3.3%,.,4.0%,.
O=C(O)CC(=O)Nc1cc(Cl)ccc1O,2.1,-58.7%[inhibitor],1.3,-0.6%,0.2,0.7%,8.4%
CC(=O)c1ccc(OCc2cc(C(=O)N(C)CC3COc4ccccc4O3)no2)cc1 (stereo not drawn),.,2.8%,5.3,1.2%,.,.,.
O=C1N=C(N2CCCCC2)S/C1=C\c1ccccc1F,13.9,7.1%[15.4 µM],-14.1,-3.7%,1.5,-5.4%,14.9%
Cc1cc(C)cc(NC(=O)CSc2nnc(-c3ccccc3)n2N)c1,0.8,-21.8%,-15.9,-2.7%,2.5,1.1%,-2.5%
COC(=O)c1cn(NC(=O)Cc2cccc(OC)c2)c(=O)c2ccccc12,-19.4,0.2%[15.4 µM],7.8,-10.1%,4.5,6.0%,9.6%
CC1(C)Cc2c(C#N)c(NCC3CCCO3)nc(-c3ccco3)c2CO1 (stereo not drawn),-12.8,-5.9%,24.4,11.2µM*,0.3,0.0%,7.94µM*
COc1ccc(C(=O)NCC(=O)OCC(=O)N2CC(C)CC(C)C2)cc1 (stereo not drawn),9.3,-1.5%,-0.3,-1.0%,-1.8,4.0%,21.5%
CCOc1cc(NC(=S)NCC2CCCO2)c(OCC)cc1NC(=O)c1cccc(C)c1 (stereo not drawn),3.6,-6.2%,-5.1,3.9%,4.6,-27.3%,25.3%
Cc1ccsc1/C=N/n1c(-c2cccnc2)n[nH]c1=S,-9.0,-25.5%,-6.0,-1.2%,0.7,-5.6%,-1.2%
Cc1cc(OCC(=O)Nn2cnnc2)c(C)cc1Br,8.6,-4.1%,-1.6,-7.3%,-0.9,8.8%,20.2%
C(=N\n1cnnc1)/c1cccc(OCCOc2ccccc2)c1,7.3,-57.2%[inhibitor],1.5,-1.3%,-3.0,4.7%,8.2%
COc1cccc(C(=O)NC(=S)Nc2cccnc2)c1,-18.6,-46.7%[inhibitor],2.6,-2.7%,2.9,-2.9%,-26.8%
Cc1cccc(-c2ccc3[nH]c4c(c3c2)CCN2C[C@@H]([C@H](C)O)[C@@H](N(C)C(=O)Nc3ccc(F)cc3)C[C@@H]42)c1,.,-41.7%,-17.4,-11.3%,.,.,.
CCn1c(O)c(N=NC(=O)c2cccnc2)c2cc(Br)ccc21,2.2,21.5%[15.4 µM],3.7,.,?,-2.0%,-2.5%
Cc1ccc(OCCNC(=O)c2ccc3c(c2)OCO3)cc1,-17.3,14.9%,-1.3,-1.9%,-7.5,-2.3%,6.2%
COc1ccc(OC)c(CNS(=O)(=O)c2cn(C)cn2)c1,5.7,-59.4%[inhibitor],.,-1.3%,.,?,0.5%
COc1nc(NC(C)C)nc(N(C#N)CN2C(=O)c3ccccc3S2(=O)=O)n1,-11.5,-14.5%[15.4 µM],6.2,.,2.8,-4.8%,-10.2%
# (continued)
SMILES,TRPV1 potentiator,gsp ag,CtBP-E1A blk,ClpP mod,Menin MLL FP FL,gsp antag,Sfp PPTase inh
NC(=O)C1(c2ccccc2)CCOCC1,3.1,-46.6%,2.1,0.9%,1.2,-1.9%,13.9%
O=C(CN1C(=O)c2ccccc2S1(=O)=O)NCc1ccccn1,?,-76.6%[inhibitor],1.4,-0.2%,2.4,8.5%,3.6%
COc1ccc(C2=NN(c3ccccc3)C(c3cccs3)C2)cc1 (stereo not drawn),-8.8,4.8%[15.4 µM],59.3,.,4.7,10.1%,-4.4%
C=CCN(C(=O)CN1CCOCC1)c1nc(C)c(-c2ccccc2)s1,2.6,3.9%,0.0,1.9%,4.6,-5.4%,-8.3%
O=C(CSc1ccc2nnc(-c3ccc(F)cc3)n2n1)NCC1CCCO1 (stereo not drawn),-1.4,28.9%,-0.9,-14.4%,0.0,-3.4%,-5.5%
Cc1nc2ccc(NC(=O)Cc3c(F)cccc3Cl)cc2s1,2.3,-37.2%[inhibitor],-4.2,-3.6%,2.3,11.4%,11.8%
COc1ccc2c(c1)OC(=O)CC2c1cc(OC)c(OC)c(OC)c1 (stereo not drawn),.,.,2.8,1.2%,-2.0[94.6 µM],-0.9%,-15.7%
COC(CN(C(=O)CCl)C(C(=O)NC1CCCCC1)c1ccc(C)cc1)OC (stereo not drawn),8.4,10.1%,6.3,1.3%,-1.5,18.0%,-3.6%
CCc1nc(N(CC)CC)c2oc3ccccc3c2n1,-2.1,-42.5%[inhibitor],15.2,-7.5%,1.0,2.6%,-3.9%
CCc1ccc(CCC(=O)Nc2ccc(Cl)cc2)o1,-16.2,1.7%,.,-2.2%,3.2,-8.4%,-6.1%
CCN1C(=C(C#N)C#N)C=Cc2ccccc21,-6.6,-52.7%[inhibitor],-2.0,0.0%,5.3,-1.8%,15.9%
Cc1sc(/N=C/c2ccccc2O)c(C#N)c1C,-1.9,.,.,.,-12.9,.,6.1%
